Screening results (PubChem BioAssay)
PMP22 txn = modulators of PMP22 gene transcription in S16 Schwann cells. S16 Pmp22-F2sN Schwann cells (luciferase reporters placed in the Pmp22 gene), FLuc/NLuc coincidence luminescence, 24 h. Potency, µM (doses to about 57.5 µM), for inactives: at the highest dose activity change, negative = inhibition, usual class: inhibitors. 43,000 tested, 2% active; active = clear falling dose curves in both reporters; inconclusive = both reporters move, but less clearly or upward; inactive = either reporter flat; the % is the NLuc reporter signal; also: % is scaled to controls: 0 for no effect and ±100 for the full control effect; some results filed as inactive show a strong effect at the top dose
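Schwann cells carrying the coincidence reporter were exposed to library compounds for 24 h at 37C, then lysed and read for FLuc and, after quenching, NLuc luminescence on a CCD imager.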
HTT promoter inh = HTT promoter inhibition. HEK293 HTT promoter firefly luciferase reporter (activity 0% = vehicle and -100% = no light), 24 h. Potency, µM (series often up to 57.5 µM), for inactives: at the highest dose activity change, negative = inhibition, hits mostly inhibitors. 48,000 tested, 0.93% active; active = well fitted inhibition curve with a large enough effect; inconclusive = small, poorly fitted or top-dose-only effect; inactive = no such curve, though single readings can be large or run the other way; also: nearly all actives have a fitted effect of over 50% in size
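HEK293 cells carrying firefly luciferase reporters were seeded at 2,500 per well in Opti-MEM and cultured for 24 h. They were then treated with compounds at up to 57.5 uM final for 24 h at 37 degrees C before Dual-Glo luminescence readout.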
The depositor's hits bear a star; ? = inconclusive; · = no result given; [ ] = dose if it differs, or a comment. Potency is read from the fitted curve at half-maximal effect.

SMILES	PMP22 txn	HTT promoter inh
O=C(Nc1cc(C(F)(F)F)cc(C(F)(F)F)c1)c1cc(Cl)ccc1O	·	?
Cc1ccccc1OCc1nnc(SCc2cc(=O)c3cccc(F)c3[nH]2)n1C	?	?
CN1[C@@H]2CC(OC(=O)[C@H](CO)c3ccccc3)C[C@H]1[C@@H]1O[C@@H]12 (stereo partly drawn)	·	-5%
O=C(CC1NCCNC1=O)Nc1ccccc1F (stereo not drawn)	-4%	-16%
COc1cc2ccccc2cc1C(=O)N1CCN(c2nc3ccc(F)cc3s2)CC1	?	?
Cc1c(C(=O)Nc2ccc(F)cc2F)nnn1-c1ccccc1Br	?	-22%
CCOc1ccccc1NC(=O)c1c(NC(=O)c2ccccc2)sc2c1CCCC2	?	-26%
COc1ccccc1N1CCN(S(=O)(=O)c2c(C)sc3ncn(CC(=O)N(C)c4ccc(Cl)cc4)c(=O)c23)CC1	?	-22%
COc1ccc(CNC(=O)COCc2cc(-c3cccs3)on2)cc1	-8%	-10%
CCCc1nc2ccccc2n2c(-c3ccc(C)cc3)c3c(=O)n(C)c(=O)n(C)c3c12	-25%	-5%[11.5 µM]
Cc1ccc(-c2nc3sc(CCNC(=O)c4ccco4)c(C)n3n2)cc1	-26%	-21%
Cc1ccc(C)c(NC(=O)Cn2cc(C(=O)C3CCCCC3)c3ccccc32)c1	-42%	?
COc1ccc(-c2cc3nc(N)cc(=O)n3[nH]2)cc1	?	27%
COc1ccc(CNC(=O)c2ccc(CS(=O)(=O)c3ccc(OC)cc3)o2)cc1	-8%	-29%
COc1cc(NC(=O)c2cc(-c3cccs3)on2)c(OC)cc1Cl	-48%	-4%[11.5 µM]
Cc1ccc(-n2ncc(C(=O)Nc3ccc4c(c3)OCCO4)c2C2CCN(C(=O)OC(C)(C)C)CC2)cc1	?	?
Cc1ccc(NC(=O)CCC(=O)N2CCSc3ccccc32)cc1	-1%	-13%
COc1ccc(Cn2c(C(=O)O)c(CNCc3ccc(OC)cc3OC)c3ccc(C)cc32)cc1	?	-30%
N#Cc1cc2c(=O)n3ccccc3nc2n(-c2nnc(SCc3ccccc3)s2)c1=O	?	-7%
CCOc1ccc(C(=O)N2CCC(c3ccncc3)CC2)cc1	12%	?
Cc1ccccc1Nc1c(-c2cccs2)nc2cccc(C)n12	10%	?
CNC(=O)c1cnc2sc(N3CCCCCC3)nn2c1=O	7%	69%[activator]
O=C(NCc1cccc(Cl)c1)c1ccc2c(c1)nc1n2CCOC1	-19%	9%
CCC(Sc1nc2nccnc2c(=O)n1Cc1ccccc1Cl)C(=O)NC1CCCCC1 (stereo not drawn)	?	-18%
CCN(CC)CCOC(=O)c1ccc(Nc2c3c(nc4ccccc24)CCC3)cc1	?	?

Reprinted from the part before: 2 entries; new compounds follow.
SMILES	PMP22 txn	HTT promoter inh
CCC(Sc1nc2nccnc2c(=O)n1Cc1ccccc1Cl)C(=O)NC1CCCCC1 (stereo not drawn)	?	-18%
CCN(CC)CCOC(=O)c1ccc(Nc2c3c(nc4ccccc24)CCC3)cc1	?	?
CCN(Cc1ccccc1)C(=O)Cn1c(=O)n(Cc2ccccc2)c(=O)c2c1c1cc(OC)ccc1n2C	-14%	-3%
CSc1ccc(/C=C/c2nc3ccccc3n2S(=O)(=O)c2cccc(Cl)c2)cc1	?	?
COc1ccc(Cl)cc1-n1nnc(-c2nc(-c3ccc4c(c3)OCO4)no2)c1C	1%	3%
O=C(Nc1nnc(SCc2cc(=O)c3ccccc3[nH]2)s1)c1ccccc1	-61%	?
CCOc1ccccc1Oc1nc(C)nc2c1oc1ccccc12	-1%	?
Nc1nc2nc(-c3ccc(Cl)cc3)cc(C(F)(F)F)n2n1	-1%	6%
Cn1c(CN2CCCCC2)nc2cc(NC(=O)c3ccccc3Cl)ccc21	-44%	?
Cc1ccc(OCC(=O)Nc2ccc(-c3nc4ccccc4o3)cc2)c(C)c1	-7%	21%
O=S(=O)(c1ccc2[nH]c3c(c2c1)CCCCC3)N1CCN(c2cccc(Cl)c2)CC1	?	-1%
Cc1nc2nc(CNC(=O)OC(C)(C)C)nn2c(C)c1CCC(=O)NCc1ccccc1Cl	-12%	-26%
COc1ccc(CNC(=O)c2ccc(NC(=O)N3CCSc4ncccc43)cc2)cc1	13%	-14%
NS(=O)(=O)c1ccc(NC(=O)CN2C(=O)COc3ccc(Cl)cc32)cc1	-11%	-16%[11.5 µM]
CCOC(=O)Cn1c(=O)n(CC2CCCO2)c2nc(-c3cccc(C)c3)nc(C(N)=O)c21 (stereo not drawn)	-26%	-5%
Cc1cc(C(=O)NCc2ccccc2)c2c(C)nn(-c3cccc(F)c3)c2n1	-12%	-38%
CN1C(C(=O)c2ccccc2)=C(OC(=O)c2ccc(Br)cc2)c2ccccc2S1(=O)=O	6%	?
CCCN1Cc2cccc(C(=O)Nc3ccc(OC)cc3OC)c2C1=O	?	-14%
COc1ccc(NC(=O)Cn2cnc3ccc(S(=O)(=O)N4CCC(C)CC4)cc3c2=O)c(OC)c1	1%	-25%
COc1ccc(C2=NC(C)(C)N(CC(=O)Nc3cc(OC)cc(OC)c3)C2=O)cc1	-11%	-2%
Cc1ccc(N(C)S(=O)(=O)c2ccc3[nH]c(=O)ccc3c2)cc1	8%	-22%
CC(=O)C1=C(c2ccc(Cl)c(Cl)c2)N(C(C)=O)n2cnnc2S1	?	?
O=C(NCCSc1c[nH]c2ccccc12)c1ccccc1Cl	?	-22%
Cn1c(=O)n(C)c2cc(CNCc3ccccc3)ccc21	-16%	-5%
CCC(=O)c1ccc2c(c1)N(CCCN(C)C)c1ccccc1S2	·	-6%
Cc1ccc2c(c1)-c1onc(C(=O)N3CCN(c4cc(Cl)ccc4C)CC3)c1CO2	-14%	-17%
CCN(CC)S(=O)(=O)c1ccc(C(=O)NCCSc2c(-c3ccc(F)cc3)[nH]c3ccccc23)cc1	?	?

More entries follow:
SMILES	PMP22 txn	HTT promoter inh
CSc1cccc(NS(=O)(=O)c2ccc3[nH]cc(C(=O)N4CCCCCC4)c(=O)c3c2)c1	8%	4%
CCOc1ccccc1NC(=O)C(=O)c1cc(C)n(-c2cccc(C)c2C)c1C	-3%	-26%
Cc1ccc(CNC(=O)N2CCC(CN3CCC(C)CC3)CC2)cc1	-17%	-11%
O=S(=O)(Nc1cc(F)ccc1F)c1ccc2[nH]c3c(c2c1)CCCC3	-7%	-4%
Oc1c(C(c2ccc(Cl)cc2)N2CCOCC2)sc2nc(-c3ccco3)nn12 (stereo not drawn)	7%	20%
COc1cc(NC(=O)CCCc2nnc3n(C)c(=O)c4sccc4n23)cc(OC)c1OC	5%	-14%
CCOC(=O)c1c(S(=O)(=O)NCC(=O)Nc2ccc(F)cc2C)c(C)n(C)c1C	-9%	-6%
CCOC(=O)c1ccc(NC(=O)c2nn(C)c3c2COc2ccccc2-3)cc1	-6%	-16%
COc1cc(NC(=O)CCc2c(C)nn(-c3ccc4nncn4n3)c2C)cc(OC)c1OC	?	-13%
COc1cccc(N2CCN(c3ncnc4c3c(-c3ccccc3)cn4-c3ccc(C)cc3)CC2)c1	8%	-18%
Cc1ccc(-n2nc(CO)c(C(=O)NC(C)CCCc3ccccc3)n2)cc1C (stereo not drawn)	-27%	?
COCc1nn2cc(-c3ccc(C)cc3)nc2s1	?	-26%
NC(=O)C(=O)N/N=C/c1ccc([N+](=O)[O-])o1	·	2%
COc1ccc(OC)c(CCNC(=O)c2c(C)oc3ncn(C)c(=O)c23)c1	-7%	7%
COc1ccc(CCNC(=O)CCCCn2c(=O)c3ccccc3n(Cc3ccccc3Cl)c2=O)cc1OC	?	-13%
COC(=O)c1c(NC(=O)c2ccccc2C(=O)O)sc2c1CCCC2	35%	2%
Cc1cccc(NC(=O)CSc2cc(C)c3ccccc3n2)c1	?	-13%
CCc1ccc(NS(=O)(=O)c2ccc3[nH]cc(C(=O)NCCc4cccc(C)c4)c(=O)c3c2)cc1	-17%	1%
Cc1ccc(C)c(N2CCN(C(=O)c3cnn(C(C)(C)C)c3C3CCN(C(=O)OC(C)(C)C)CC3)CC2)c1	?	?
CCOC(=O)C1=C(CS(=O)(=O)c2ccc(Br)cc2)NC(=O)NC1c1ccccc1 (stereo not drawn)	-12%	-19%
COc1ccc(C2=NS(=O)(=O)N(C)C(C(=O)Nc3cc(C)ccc3O)=C2)cc1OC	-30%	?
Cc1ccc(CN(Cc2cccn2-c2nnc(N3CCCC3=O)s2)C(=O)Nc2cc(C)cc(C)c2)cc1	?	-34%
N#Cc1c(-n2ncnc2-c2ccccc2Cl)sc2c1CCCCC2	-1%	?
CCN(CC)CCNC(=O)c1c2c(nc3ccccc13)C(=O)N(C1CCCCC1)C2	-13%	-8%
Cc1ccc2cccc(NC(=O)c3ccc(OC(C)C)cc3)c2n1	-28%	-8%

Fetched by compound from the list above (7):
SMILES	PMP22 txn	HTT promoter inh
COCc1nn2cc(-c3ccc(C)cc3)nc2s1	?	-26%
CCOC(=O)C1=C(CS(=O)(=O)c2ccc(Br)cc2)NC(=O)NC1c1ccccc1 (stereo not drawn)	-12%	-19%
COc1cc(NC(=O)CCCc2nnc3n(C)c(=O)c4sccc4n23)cc(OC)c1OC	5%	-14%
COc1cc(NC(=O)CCc2c(C)nn(-c3ccc4nncn4n3)c2C)cc(OC)c1OC	?	-13%
CCOc1ccccc1NC(=O)C(=O)c1cc(C)n(-c2cccc(C)c2C)c1C	-3%	-26%
COc1cccc(N2CCN(c3ncnc4c3c(-c3ccccc3)cn4-c3ccc(C)cc3)CC2)c1	8%	-18%
Cc1cccc(NC(=O)CSc2cc(C)c3ccccc3n2)c1	?	-13%

Going on with the list.
SMILES	PMP22 txn	HTT promoter inh
COc1ccc(-c2coc3cc(O)ccc3c2=O)cc1	·	17%
COC(=O)c1ccc(NC(=O)C2CCN(C(=O)c3ccc(F)cc3)CC2)cc1	-12%	-23%
Fc1ccc(-n2ncc3c(Nc4ccc(Oc5ccccc5)cc4)ncnc32)cc1	?	1%
O=S(=O)(NCCc1csc2nc(-c3ccc(Cl)cc3)nn12)c1ccc(Oc2ccccc2)cc1	13µM*	?
COc1ccc(NC(=O)CNC(=O)Cn2ccc3ccccc3c2=O)c(OC)c1	12%	-5%
Cc1cc(C)cc(OCC(=O)Nc2ccc(Cl)c(-c3nc4ncccc4o3)c2)c1	-15%	-21%
Cc1cc(C)c(NC(=O)c2c(C)oc3c2C2=NCCN2C=N3)c(C)c1	-4%	-6%
COc1ccc(-c2nc(CSc3nncn4c3cc3occc34)c(C)o2)cc1	-25%	-19%
CCCCOc1ccc(Cn2c(=O)oc3ccc(C)cc32)cc1OC	-13%	?
